Screening results deposited in PubChem by several laboratories.
PKD1 inh: inhibitors of human PKD1 kinase, biochemical, fluorescence polarization. Serine/threonine-protein kinase D1 (Homo sapiens), Q15139. PKD1 kinase fluorescence polarization assay. inhibition, %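 (about 10 µM by stock and volumes)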. 200,000 tested, 0.056% active. AID 797, 2007;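 active means inhibition of 50% or more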;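 further: controls were vehicle for no effect and a reference inhibitor for full effect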
Insulin prom inh: inhibitors of insulin promoter-driven GFP, primary screen, imaging, TRM-6 cells (human fetal islet line), eGFP reporter, cell count; 130,000 tested, 0.9% active; inhibition, % at 2 µM; reporter expression induced with tamoxifen;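 active means inhibition above the mean plus 3 SD, with well images judged a real hit on visual review, cut at about 60% in these data, passing the limit was not always enough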
GALR2 agonist: GALR2 receptor agonists, primary screen, cell-based; Galanin receptor type 2 (Homo sapiens), O43603; GALR2-expressing cells, agonist activation read-out; activation, %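 (tested at 5 µM)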; 140,000 tested, 0.48% active;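 active means above mean plus 3 SD of all compounds, about 5% in these data, not always enough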;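 further: 0% = vehicle buffer wells and 100% = reference agonist at full effect; tested in CHO reporter cells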
Target sequence (O43603 whole entry, looked up): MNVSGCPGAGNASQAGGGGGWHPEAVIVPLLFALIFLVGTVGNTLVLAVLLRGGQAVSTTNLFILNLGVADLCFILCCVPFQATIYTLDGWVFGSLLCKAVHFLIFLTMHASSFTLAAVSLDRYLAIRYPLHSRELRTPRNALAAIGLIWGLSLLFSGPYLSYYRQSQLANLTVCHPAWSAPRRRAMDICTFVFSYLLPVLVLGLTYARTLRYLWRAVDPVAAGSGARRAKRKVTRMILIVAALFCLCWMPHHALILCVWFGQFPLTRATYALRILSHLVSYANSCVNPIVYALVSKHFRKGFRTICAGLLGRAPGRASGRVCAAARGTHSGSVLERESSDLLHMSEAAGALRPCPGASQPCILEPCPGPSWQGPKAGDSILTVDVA
RGS16-Gao: modulators of RGS16 binding to Galphao, primary screen, biochemical, human proteins, multiplexed bead flow cytometry | Regulator of G-protein signaling 16 (Homo sapiens) + Guanine nucleotide-binding protein … | 220,000 tested, 0.38% active | binding response (% of control), % at 10 µM | AID 1441, 2008 | bead-based flow cytometry RGS16-Galphao binding, fluorescence; actives lie on both sides;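 active means below 25% or above 175%, edge rows of some plates excepted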;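 further: Galphao activated by GDP with aluminum fluoride before binding; 100% = wells without compound and 0% = beads without RGS; some results beyond the cut were filed as inactive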
Target sequence (O15492 whole entry, looked up): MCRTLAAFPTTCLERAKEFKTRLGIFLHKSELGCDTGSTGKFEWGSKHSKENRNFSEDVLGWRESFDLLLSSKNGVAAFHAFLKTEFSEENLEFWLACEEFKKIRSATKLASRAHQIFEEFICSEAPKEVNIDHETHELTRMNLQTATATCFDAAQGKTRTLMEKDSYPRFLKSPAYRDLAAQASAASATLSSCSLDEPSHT
Target sequence (P09471 whole entry, looked up): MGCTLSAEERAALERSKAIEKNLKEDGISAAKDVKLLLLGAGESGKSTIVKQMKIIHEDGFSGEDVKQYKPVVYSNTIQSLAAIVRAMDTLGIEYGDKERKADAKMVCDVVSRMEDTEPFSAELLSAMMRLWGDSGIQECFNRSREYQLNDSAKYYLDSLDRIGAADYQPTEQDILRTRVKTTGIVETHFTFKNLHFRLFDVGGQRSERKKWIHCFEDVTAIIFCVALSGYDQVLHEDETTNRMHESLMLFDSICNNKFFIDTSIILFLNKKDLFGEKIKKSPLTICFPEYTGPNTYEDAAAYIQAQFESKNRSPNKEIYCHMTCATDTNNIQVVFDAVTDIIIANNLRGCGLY
HSV augment: enhancers of HSV replication in host cells, fold increase, host cell viability; HSV replication augmentation in cells; maximum fold increase; 220,000 tested, 0.005% active;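 active means peak rise of 1.5-fold or more in the series; tested in PC3 cells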;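 further: first round at 10 µM; read as green reporter fluorescence; hits show the peak of a series up to 25 µM; 1 = signal of infected wells without compound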
Insulin prom inh cell count: also measured in Insulin prom inh; calls as there; normalized cell count, %; measured here: cell count, toxicity; reference of the scale not given here;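 cells exposed to compound for 48 h; stained nuclei by imaging scaled within each plate; lower means fewer cells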
HSV augment primary fold: further read-out of HSV augment, marked with its call; fold increase; compound at 10 µM; measured here: primary screen fold increase 10 uM; tested in PC3 cells;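 GFP signal in the first replicate; 1 = infected wells without compound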
* marks the source's active call; other numbers are inactive results; i = inactive; . = no result given.

No.	Molecule	PKD1 inh	Insulin prom inh	Insulin prom inh cell count	GALR2 agonist
1	CC(=O)Nc1ccc(NS(=O)(=O)c2cccc3ccccc23)cc1	8	28	75	-2.0
2	Cc1cccc(Cc2cnc(NC(=O)C3=NCCN3)s2)c1	-4	7	155	.
3	Cc1ccc(-c2nnn(CC(=O)NCC3CC3)n2)o1	-10	0	123	-1.3
4	CCNS(=O)(=O)c1ccc(OC)c(C(=O)NC2CCCCC2)c1	2	.	.	.
5	N#CCCSc1ncnc2c1oc1ccccc12	3	-3	91	-0.6
6	COc1cccc(CN2CCN(C3CSCCSC3)CC2CCO)c1 (stereo unspecified)	-11	.	.	.
7	COc1ccc(C(c2nnnn2CS(=O)(=O)c2ccc(C)cc2)N2CCN(c3ncccn3)CC2)cc1 (stereo unspecified)	-4	73	94	-2.4
8	Cc1nnc(OCc2nc3ccccc3n2C)c2ccccc12	-3	-45	185	0.7
9	Cc1ccccc1-c1nc(-c2ccc(NC(=O)c3ccc(Br)o3)cc2)no1	2	-14	67	-1.7
10	Nc1ccc(CSc2ccc(Cl)cc2)cc1	1	.	.	.
11	CCn1c(SCC(=O)N2c3ccccc3CC2C)nnc1-c1ccco1 (stereo unspecified)	4	-45	119	-1.9
12	O=C(c1ccc(F)cc1)N1CCN(C(=O)c2ccc([N+](=O)[O-])cc2)CC1	2	43	115	.

No.	RGS16-Gao	HSV augment	HSV augment primary fold
1	99	i	1.3
2	97	i	0.93
3	102	i	1
4	99	i	1.1
5	103	i	1.1
6	102	i	0.88
7	105	i	0.83
8	99	i	0.9
9	65	i	0.86
10	103	i	0.9
11	.	i	0.85
12	101	i	0.96

(next part)
No.	Molecule	PKD1 inh	Insulin prom inh	Insulin prom inh cell count	GALR2 agonist
13	N=C1C(c2nc3ccccc3[nH]2)=C(O)CN1c1ccc(CC(=O)O)cc1	-3	57	87	-2.1
14	COc1cc(-c2nnc(SCC3(c4ccccc4)OCCO3)o2)cc(OC)c1OC	-7	.	.	-1.1
15	NNC(=O)CSc1nnnn1-c1ccccc1	.	.	.	.
16	O=S1(=O)CCC(n2ncc3c2/C(=C/c2ccccc2)CC3)C1 (stereo unspecified)	0	.	.	.
17	CC[n+]1c(/C=C/Nc2ccccc2)sc2ccccc21	-1	.	.	-4.0
18	CN(C)/C=C1\N=C(c2ccc(Cl)cc2Cl)OC1=O	1	23	209	-1.1
19	O=C(CCC(=O)OCC(=O)c1ccc(Br)cc1)Nc1ccc(Br)c2cccnc12	-6	-3	72	-2.7
20	COC(=O)C1=C(N)Oc2cc(C)n(Cc3ccco3)c(=O)c2C1c1cccc(Cl)c1 (stereo unspecified)	-2	-36	66	-2.2
21	CC(C)C[C@H](NC(=O)Nc1ccc(S(N)(=O)=O)cc1)C(=O)O	5	25	84	-0.3
22	CC(C)N(Cc1nc(-c2ccc(Cl)cc2)no1)C(=O)CCCN1C(=O)c2ccccc2C1=O	4	.	.	-1.2
23	Cc1ccc(CNC(=O)CCCn2c(=O)c3ccccc3n(CC(=O)NC3CCCC3)c2=O)cc1	-17	34	88	-1.5
24	CCOC(=O)CC(=O)CSc1nc2c(C)c(C)ccc2cc1C	-9	-30	77	-0.8

No.	RGS16-Gao	HSV augment	HSV augment primary fold
13	103	i	0.91
14	107	i	1
15	107	i	0.92
16	98	i	0.99
17	101	i	0.91
18	97	i	1.1
19	106	i	0.84
20	101	i	0.99
21	112	i	1.1
22	99	i	0.96
23	100	i	1.1
24	93	i	1.1

4 entries from above, bar-delimited:
no. | Structure | PKD1 inh | Insulin prom inh | Insulin prom inh cell count | GALR2 agonist | RGS16-Gao | HSV augment | HSV augment primary fold
15 | NNC(=O)CSc1nnnn1-c1ccccc1 | . | . | . | . | 107 | i | 0.92
22 | CC(C)N(Cc1nc(-c2ccc(Cl)cc2)no1)C(=O)CCCN1C(=O)c2ccccc2C1=O | 4 | . | . | -1.2 | 99 | i | 0.96
21 | CC(C)C[C@H](NC(=O)Nc1ccc(S(N)(=O)=O)cc1)C(=O)O | 5 | 25 | 84 | -0.3 | 112 | i | 1.1
24 | CCOC(=O)CC(=O)CSc1nc2c(C)c(C)ccc2cc1C | -9 | -30 | 77 | -0.8 | 93 | i | 1.1

Reprinted at random: two compounds from above
No.	Molecule	PKD1 inh	Insulin prom inh	Insulin prom inh cell count	GALR2 agonist
14	COc1cc(-c2nnc(SCC3(c4ccccc4)OCCO3)o2)cc(OC)c1OC	-7	.	.	-1.1
17	CC[n+]1c(/C=C/Nc2ccccc2)sc2ccccc21	-1	.	.	-4.0

No.	RGS16-Gao	HSV augment	HSV augment primary fold
14	107	i	1
17	101	i	0.91

Next part:
No.	Molecule	PKD1 inh	Insulin prom inh	Insulin prom inh cell count	GALR2 agonist
25	Cc1csc2c(SCC(=O)NNC(=O)C(Cl)Cl)ncnc12	.	.	.	.
26	COc1ccccc1N=C1SC(C(=O)Nc2cccc(Cl)c2Cl)C(N)=C1C(N)=O (stereo unspecified)	.	.	.	.
27	CC(C)NS(=O)(=O)c1ccc(CCC(=O)NCc2ccco2)cc1	-5	-12	119	-1.7
28	COc1ccc(OC)c(C(C)NC(=O)c2ccco2)c1 (stereo unspecified)	-10	.	.	-2.5
29	Cc1cc(NC(=O)C2CC(=O)N(c3ccccc3)C2)no1 (stereo unspecified)	-6	.	.	-2.6
30	O=C(Nc1ccccc1SCC1CSc2nc3ccccc3c(=O)n21)c1ccccc1 (stereo unspecified)	-2	-123	105	-0.8
31	Cn1c(=O)c2cc(S(=O)(=O)NCCC(=O)NCCc3ccc(Cl)cc3)ccc2n(C)c1=O	-4	-64	88	-1.6
32	COCCN(C(=O)c1ccccc1OC1CCN(S(C)(=O)=O)CC1)C(C)C	-8	.	.	.
33	COc1ccc(CCn2c(NCCCN3CCOCC3)nc3c2c(=O)[nH]c(=O)n3C)cc1	-2	19	74	-1.0
34	O=c1[nH]c2ccc(Cl)cc2c(-c2ccccc2)c1SC(=S)N1CCOCC1	-2	16	71	0.3
35	CC1CC(O)(Cc2ccccc2)C(C)CN1C (stereo unspecified)	-4	-10	78	-1.2
36	CCNC(=S)N/N=C/c1ccc(OCCOc2ccccc2C)cc1	17	19	111	-4.1

No.	RGS16-Gao	HSV augment	HSV augment primary fold
25	102	i	1
26	107	i	0.8
27	107	i	0.91
28	97	i	0.79
29	70	i	0.98
30	97	i	0.99
31	102	i	0.85
32	92	i	0.92
33	111	i	0.89
34	88	i	0.83
35	97	i	1.1
36	96	i	0.74

Complete entries from above. Screens in order: PKD1 inh	Insulin prom inh	Insulin prom inh cell count	GALR2 agonist	RGS16-Gao	HSV augment	HSV augment primary fold
Cc1cc(NC(=O)C2CC(=O)N(c3ccccc3)C2)no1 (stereo unspecified) reads -6	.	.	-2.6	70	i	0.98
COc1ccc(CCn2c(NCCCN3CCOCC3)nc3c2c(=O)[nH]c(=O)n3C)cc1 reads -2	19	74	-1.0	111	i	0.89
Cc1csc2c(SCC(=O)NNC(=O)C(Cl)Cl)ncnc12 reads .	.	.	.	102	i	1
COCCN(C(=O)c1ccccc1OC1CCN(S(C)(=O)=O)CC1)C(C)C reads -8	.	.	.	92	i	0.92
COc1ccccc1N=C1SC(C(=O)Nc2cccc(Cl)c2Cl)C(N)=C1C(N)=O (stereo unspecified) reads .	.	.	.	107	i	0.8

(listing goes on)
No.	Molecule	PKD1 inh	Insulin prom inh	Insulin prom inh cell count	GALR2 agonist
37	COC(=O)[C@@H](NC(=O)NCc1ccccc1Cl)C(C)C	-9	25	92	-0.5
38	COc1nc(-c2ccccc2)ccc1-c1noc(-c2cccs2)n1	-10	39	74	-3.0
39	O=C(COC(=O)c1cnc(Cl)c(Cl)c1)NCc1ccc2c(c1)OCO2	3	13	98	-1.0
40	COc1ccc(C)cc1S(=O)(=O)N1CCN(Cc2ccccc2)CC1	-4	-11	85	-0.3
41	O=[N+]([O-])c1cccc(-c2nc(N3CCOCC3)c3ccccc3n2)c1	-5	.	.	.
42	Cc1cc(C(=O)Nc2cccc3ccccc23)n(-c2ccccc2)n1	-1	13	106	.
43	O=C(O)CN=C(NS(=O)(=O)c1ccccc1)c1ccccc1	-3	0	119	-3.0
44	Cc1cnc(C(=O)OCC(=O)NCc2ccc3c(c2)OCO3)cn1	-11	.	.	.
45	COc1cc(/C=N/NC(=O)c2ccc3nc[nH]c3c2)cc(OC)c1OC	.	.	.	.
46	CCOC(=O)N1CCC(N2C(=O)c3ccccc3C2Nc2ccc(S(=O)(=O)N3CCCCC3)cc2)CC1 (stereo unspecified)	-5	18	111	.
47	CCOC(=O)C1CCN(CC(=O)N2C(C)CCCC2C)CC1 (stereo unspecified)	-9	4	77	-0.5
48	CCOc1ncccc1C(=O)N1CCN(c2cccc(C)c2C)CC1	-1	.	.	.

No.	RGS16-Gao	HSV augment	HSV augment primary fold
37	97	i	1
38	.	i	0.79
39	104	i	0.95
40	103	i	1
41	98	i	1.1
42	102	i	0.93
43	100	i	0.99
44	108	i	0.83
45	89	i	0.91
46	100	i	1
47	86	i	0.92
48	89	i	0.68

Continued:
No.	Molecule	PKD1 inh	Insulin prom inh	Insulin prom inh cell count	GALR2 agonist
49	O=C(C1=C[C@@H](c2coc3ccccc3c2=O)C[C@@H](OCCCCO)O1)N1CCN(Cc2ccc3c(c2)OCO3)CC1	10	.	.	.
50	CCCCC(=O)NC(Nc1cc(C)ccn1)(C(=O)OCC)C(F)(F)F (stereo unspecified)	4	.	.	-0.3
51	O=C(CSc1nnc(-c2cccnc2)n1C1CCCCC1)NC1CCCCC1	-1	12	168	-0.7
52	COC(=O)C1CCN(S(=O)(=O)c2cn(C)c(=O)n(C)c2=O)CC1	3	.	.	-2.8
53	O=C(NCC1CCCO1)C1CCN(C(=O)c2ccc(Br)cc2)CC1 (stereo unspecified)	-3	69	44	-2.9
54	CCOc1ccc(N2C(=O)S/C(=C\c3ccc(O)c(OCC)c3)C2=O)cc1	.	.	.	.
55	COCCCNC(=O)COc1ccc(S(=O)(=O)Nc2ccccc2)cc1	2	-12	125	-0.4
56	Cc1[nH]n(-c2ccccc2)c(=O)c1C=NCc1ccco1	5	50	67	.
57	COc1cccc(C(=O)Nc2ccc(NC(=O)c3ccco3)c(Cl)c2)c1	7	35	94	.
58	COC(=O)c1cc(NC(=O)c2ccc(OC)cc2)c(=O)oc1C	7	.	.	.
59	O=C(c1cc(Cl)cc(Cl)c1)N1CCOCC1	-5	87*	91*	-3.1
60	COC(=O)C(C)NC(=O)C12CC3CC(CC(C3)C1)C2 (stereo unspecified)	-1	-6	84	0.1
61	Cc1ccccc1NC(=O)c1ccc(CN2CCC(Cc3ccccc3)CC2)cc1	-2	6	72	-0.4

No.	RGS16-Gao	HSV augment	HSV augment primary fold
49	112	i	0.74
50	100	i	1.1
51	100	i	1
52	102	i	0.79
53	94	i	0.9
54	104	i	1.3
55	96	i	0.93
56	108	i	1
57	90	i	0.89
58	78	i	0.96
59	103	i	0.91
60	99	i	1
61	106	i	0.99
